PV pol inh: poliovirus RdRp elongation inhibitors, primary screen, biochemical, fluorescence polarization, total intensity; Genome polyprotein (Poliovirus type 1 (strain Mahoney)), P03300; poliovirus polymerase elongation; hits give low values; % elongation, % (compound at 16.7 µg/mL); actives 0.66% (n = 150,000); in the data active = % elongation below about 90%; note: some results filed as inactive read as strong as hits
MbtI inh: MbtI salicylate synthase inhibitors, primary screen, biochemical, fluorescence intensity; P9WFX0; purified MbtI enzyme, fluorescence intensity read-out; inhibition, %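 (about 17 µg/mL by stock and volumes)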; actives 0.89% (n = 100,000);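 active = above 50% in both replicates, above 80% if mildly self-fluorescent; inactive = the rest, strongly fluorescent compounds included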;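 note: 0% = mean of negative and 100% = mean of positive controls; one replicate is shown; some compounds called inactive have numbers as strong as hits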
Target sequence (P9WFX0 whole entry, looked up): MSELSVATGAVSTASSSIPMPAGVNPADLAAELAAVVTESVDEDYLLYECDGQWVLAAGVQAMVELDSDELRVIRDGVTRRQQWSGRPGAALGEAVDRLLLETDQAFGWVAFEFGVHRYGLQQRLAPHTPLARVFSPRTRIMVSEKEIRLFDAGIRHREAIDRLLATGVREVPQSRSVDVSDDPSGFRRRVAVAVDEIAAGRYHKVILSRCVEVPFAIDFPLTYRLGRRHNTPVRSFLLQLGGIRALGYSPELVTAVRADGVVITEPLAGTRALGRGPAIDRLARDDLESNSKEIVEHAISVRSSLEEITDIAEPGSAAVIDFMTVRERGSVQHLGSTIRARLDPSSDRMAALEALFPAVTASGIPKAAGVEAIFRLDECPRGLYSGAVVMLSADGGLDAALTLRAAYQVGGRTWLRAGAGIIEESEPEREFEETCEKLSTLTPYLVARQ
MenB inh: M. tuberculosis MenB inhibitors, primary screen, biochemical, absorbance; 1,4-dihydroxy-2-naphthoyl-CoA synthase (Mycobacterium tuberculosis (strain ATCC 25618 / …; MenB enzyme assay, absorbance read-out; some hits fall short of the stated cut; inhibition, %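 (about 12 µg/mL by stock and volumes)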; actives 0.43% (n = 100,000); AID 540299, 2011;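 active = mean of two replicates above 30%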;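 note: 0% = no compound and 100% = wells with inactive enzyme; the first replicate is given; strong numbers were not always called active; inactives centre near -10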
Target sequence (P9WNP5 whole entry, looked up): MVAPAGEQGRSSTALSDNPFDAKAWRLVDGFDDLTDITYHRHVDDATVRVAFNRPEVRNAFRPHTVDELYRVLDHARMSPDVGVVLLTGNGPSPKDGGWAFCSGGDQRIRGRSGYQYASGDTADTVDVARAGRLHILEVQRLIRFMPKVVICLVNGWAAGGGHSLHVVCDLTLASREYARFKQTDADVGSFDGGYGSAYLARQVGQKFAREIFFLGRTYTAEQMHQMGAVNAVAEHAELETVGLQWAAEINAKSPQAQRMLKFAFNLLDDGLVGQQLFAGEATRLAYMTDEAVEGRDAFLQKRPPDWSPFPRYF
PV pol inh intensity: further read-out of PV pol inh, marked with its call; % elongation; measured here: total intensity read-out; formula for this scale not given here;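 total fluorescence in place of polarization; lower means less elongation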
Active calls of the source: *; . = not tested or not shown; & = joins results of further samples.

SMILES	PV pol inh	PV pol inh intensity	MbtI inh	MenB inh
COc1ccc(CNC(=O)Cn2cnc3ccccc32)cc1OC	104	110	-2	-27
Cc1noc(C)c1CSc1nc(N)c(-c2nc(-c3ccccc3)cs2)cc1C#N	116	121	104	-29
CN1/C(=C/C(=O)C2CCC2)C(C)(C)c2ccccc21	101	101	8	-15
O=C1OCCC1n1nnc(-c2ccc(F)cc2)n1 (stereo not given)	100	96	7	-15
O=C(CSc1ncccn1)Nc1nccs1	105	105	8	-15
O=C(CSc1nccn1-c1ccc(F)cc1)Nc1ccccc1	100	101	9	-15
COc1ccc(CN2CCN(C(=O)Cn3c(=O)c4cccn4c4cccnc43)CC2)c(OC)c1OC	100	107	98	3
CC(C)(C)C1=CC=Nn2cnnc2S1	98	101	3	18
COC(=O)c1c(F)c(F)c(F)c(F)c1C(=O)OC	100	102	-16	4
OC1(C(F)(F)F)CC(c2ccc3c(c2)Nc2ccccc2S3)=NN1 (stereo not given)	98	95	1	11
CCC1CSC(Nc2ccccc2C(F)(F)F)=N1 (stereo not given)	98	95	2	4
CCOC(=O)C1CCN(CN2C(=O)C(=Nc3ccc(C)c(C)c3)c3ccccc32)CC1	103	103	-1	5
CN(/N=C(\C#N)C(=O)C1CC1)c1ccc(Cl)cc1	107	110	-2	-13
COc1ccc(/C=C2\CSc3ccccc3C2=O)cc1	101	103	9	-26
COc1ccc(NC(=O)C2CC(=O)NC(=Nc3ccccc3)S2)cc1 (stereo not given)	105	106	-4	-34
CC(=O)Nc1nnc(CC(=O)N/N=C/c2ccc(Cl)cc2)s1	103	102	-2	-4
O=C(COC(=O)c1cc2ccccc2[nH]1)c1ccccc1	103	104	38	-36
CCOc1nc2cccnc2n(Cc2cccc(Cl)c2)c1=O	100	104	40	-3
CCn1cc(C(=O)NN)c(=O)c2cc(F)c(NC3CCCCC3)cc21	100	106	10	8
CN(Cc1ccccc1)C(=O)C1c2ccccc2C(=O)N(C)C1c1cccs1 (stereo not given)	101	104	3	-9
Cc1cc(=O)oc(C)c1C(=O)OCC(=O)c1ccccc1	100	102	23	0
CSc1nc(C)cc(OCC(=O)NCCOc2ccc(C)cc2)n1	101	103	-14	-24
CC1CCCN(C(=O)C(C)OC(=O)c2c3c(nc4ccccc24)CCN(C)C3)C1 (stereo not given)	95	96	27	12
COc1ccc(S(=O)(=O)N2CCN(S(=O)(=O)c3ccccc3)CC2)cc1	103	108	-11	-16
O=C(CSc1c(-c2ccccc2)c2cc(Cl)ccc2[nH]c1=O)NC1CCCC1	104	105	14	-37
CCC(Sc1nnc(C)s1)C(=O)Nc1nccs1 (stereo not given)	101	99	11	4
O=S(=O)(c1ccc(-c2ccc(S(=O)(=O)N(CCO)CCO)cc2)cc1)N(CCO)CCO	102	103	-12	-34
CSc1cccc(C(=O)Nc2sccc2C#N)c1	103	107	-2	-28
COCC(C)NCc1cc(C)c(OC)cc1C (stereo not given)	101	103	-5	-20
CC(CC(=O)c1ccccc1)CC(=O)c1ccccc1	113	109	.	-2
CN(C)C(=O)COC(=O)c1ccccc1NCCO	100	102	105	0
Cc1cc(OCc2nnc3n2CCCCC3)ccc1Cl	102	98	-1	.
CC(C)NC(=O)CCc1nc(-c2ccc(Cl)cc2)no1	102	101	-3	-23
O=C(Nc1ccc(F)c(Cl)c1)c1ccc(N2C(=O)CCC2=O)cc1	107	100	34	8
Nc1c(C(=O)N2CCCC2)nnn1-c1ccc(F)cc1	101	103	3	-48
O=C1CSC(=Nc2ccccc2)N1S(=O)(=O)c1ccccc1	102	103	-22	4
c1cncc(C2=NCCC2)c1	102	100	-6	6
CC(C)S(=O)(=O)/C(C#N)=C/Nc1cccnc1	100	101	29	2
CCCC(CCC)C(=O)N1CCN(c2ccc(NCc3ccccc3)nn2)CC1	106	104	-35	-9
COc1ccc(C(=O)NCc2cn3ccccc3n2)cc1	102	103	105	8
O=C(Nc1ccc(N2CCCCC2)cc1)c1ccc(=O)oc1	44	245	-2	1
CC(C)CNc1ncnc2c1cnn2-c1ccccc1	103	105	-22	-6
C=CCNC(=O)c1ccc(S(=O)(=O)N(CC)c2ccccc2)cc1	102	100	18	0
O=C(Oc1ccc(OC(=O)C2CCCCC2)c(Cl)c1)C1CCCCC1	105	110	.	-10
Nc1cccc2c1C(=O)N(C(=O)/C=C/c1cccc(F)c1)C2=O	82*	99*	12	-36
Cc1ccc(-c2csc(C3=C(O)CN(N)C3=N)n2)cc1	107	109	11	-12
CCCn1c(N)c(C(=O)CN2CCCc3ccccc32)c(=O)[nH]c1=O	101	104	-4	-5
O=C(c1ccc(C(=O)N2CCCCC2)cc1)N1CCCCC1	103	107	.	4
Cc1noc(C)c1C(=O)N1CCCSc2ccccc21	104	110	-13	-13
CC(NC(=O)CCN1C(=O)NC2(CCCC2)C1=O)c1cc(F)c(Cl)cc1Cl (stereo not given)	102	109	-13	-3

Arranged by count of non-hydrogen atoms (low to high): part of the list above
SMILES	PV pol inh	PV pol inh intensity	MbtI inh	MenB inh
O=C(CSc1ncccn1)Nc1nccs1	105	105	8	-15
O=C1OCCC1n1nnc(-c2ccc(F)cc2)n1 (stereo not given)	100	96	7	-15
Nc1cccc2c1C(=O)N(C(=O)/C=C/c1cccc(F)c1)C2=O	82*	99*	12	-36

Next part.
SMILES	PV pol inh	PV pol inh intensity	MbtI inh	MenB inh
CC1Cc2cc(S(=O)(=O)NC3CCCC3)ccc2N1C(=O)C1CC1 (stereo not given)	105	103	-12	-16
Cc1noc(NS(=O)(=O)c2ccc(N3CC(O)=C(c4ccccc4)C3=N)cc2)c1C	97	100	-2	5
CCc1ccc(NC(=O)CCN2C(=O)C3C4C=CC(C4)C3C2=O)cc1 (stereo not given)	99	102	-1	1
O=C(CSc1n[nH]c(-c2cccs2)n1)N1CCCc2ccccc21	102	107	-8	1
Cn1ccsc1=NC(=O)c1ccccc1OC(F)F	105	113	0	-5
O=C(c1ccco1)N1CCN(C(=O)c2cc(F)c(F)c(F)c2F)CC1	102	105	-17	.
CCCCCn1c(=N)c(C#N)cc2c(=O)n3ccccc3nc21	103	108	65	-16
CCC1=Nc2cc(C(=O)NCC3CCCO3)ccc2Sc2ccc(Br)cc21 (stereo not given)	104	110	-8	-22
CCCCN1CCCCC1C(=O)Nc1c(C)cccc1C (stereo not given)	102&100	99&103	-10&-14	-12&-1
COc1cc(C(=O)O)cc(I)c1OC1CCCC1	100	99	7	-2
COc1ccc(NC(=O)C2CCC(=O)N2C(=O)OCc2ccccc2)cc1 (stereo not given)	103	108	.	5
O=S1(=O)CC2C(C1)N(c1ccccc1)C(=S)N2c1ccccc1 (stereo not given)	102	101	-13	-26
CC12CC[C@@H]3C(=O)CCC(O)CC(=O)CC[C@H]3C1(O)CCC2C1=CC(=O)OC1 (stereo not given in full)	102	101	0	-24
N#Cc1ccc(OCC(=O)NCc2ccco2)cc1	101	104	-8	.
CC(NC(=O)c1ccc(Br)o1)C1CC2CCC1C2 (stereo not given)	100	105	-4	.
CCc1ccc(-n2c(N)c(C(=O)OC)c3nc4ccccc4nc32)cc1	98	100	108	-35
N#Cc1c(NC(=O)CSc2ccccc2)sc2c1CCC2	106	107	-10	-51
CCn1c(C(O)c2cc(C(C)(C)C)c(O)c(C(C)(C)C)c2)nc2ccccc21 (stereo not given)	102	94	.	-12
CCN(CC)C(=O)c1cccc(Nc2ccc(-c3ccccc3OC)nn2)c1	101	102	2	-20
CCOC(=O)CN1C(=O)C(O)(CC(=O)c2ccc3c(c2)OCO3)c2ccccc21 (stereo not given)	102	103	-1	-2
CCn1nc(C)c(CCNC(=O)c2cc3c(=O)n(Cc4ccc(OC)cc4)ccc3nc2C)c1C	100	106	2	-11
COc1ccc(C2CCCN2C(=O)c2cccs2)cc1 (stereo not given)	100	104	-2	-7
O=c1[nH]c2ccc(NC(=S)Nc3ccc(S(=O)(=O)N4CCOCC4)cc3)cc2[nH]1	99	93	35	-6
CCC(=O)Nc1ccc(NCc2ccccc2C)cc1	100	101	3	-30
COc1ccc(Nc2nc(C(=O)NCc3ccco3)cs2)cc1	101	98	9	-1
CCN1C(=O)/C(=C\c2cccs2)SC1=Nc1cc(C)on1	105	105	5	-3
CC1=CC(=C2C(=O)NC(=O)NC2=O)C=C(C)N1c1ccccc1	93	122	14	-6
CC(=NCc1ccccc1)c1sc2ccccc2c1O	103	98	1	.
CSc1cccc(NC(=O)c2cccc(CS(C)(=O)=O)c2)c1	104	103	5	-31
Cn1c(CN2CCOCC2)nc2cc(NS(=O)(=O)c3ccc(F)cc3)ccc21	104	107	-11	-5
COc1ccc(/C=C/C(=O)Nc2c3c(nc4c2CCC4)CCCC3)cc1OC	103	105	69	-22
CC(=O)N(C)c1ccc(N=C2C(=O)Nc3ccc(C)c(Br)c32)cc1	102	108	.	1
CCCN(CCC)C(=O)CCc1c(C)nc2c(c(C)nn2-c2ccc(C)cc2)c1C	100	95	-12	1
CC(C)N1C(=O)C(O)(CC(=O)c2ccccc2Br)c2ccccc21 (stereo not given)	103	98	-2	.
Cc1cc(SCC(=O)N(C)C)nc2ccccc12	104	108	-4	-12
Cc1nn(-c2ccc3nnc(C)n3n2)c(C)c1CCC(=O)O	101	104	6	-5
CC(Oc1ccc(Br)cc1)C(=O)N1CCCCC1 (stereo not given)	100	103	-9	-7
CSc1cccc(NC(=O)/C=C/c2ccccc2)c1	98	100	15	-40
Cc1ccc(N2COc3cc4c(cc3C2)OCO4)cc1C	102	95	7	-21
Cc1cc(NC(=O)C2=C(O)c3ccccc3S(=O)(=O)N2C)no1	99&100	101&104	-7&32	4&-14
Cc1c(Cl)cccc1NC(=O)CCN1CCC(C(N)=O)CC1	102	104	-2	48
O=c1c2c3c(sc2nc2n1CCCCC2)C(O)CCC3 (stereo not given)	99	101	-1	1
CCc1cc(CC)c(CO)c(CC)c1/C=N/O	101	102	-8	-27
CCOc1ccc(NC(=O)C2CCCN2c2nnc(N3CCCC3=O)s2)cc1 (stereo not given)	106	105	2	-12
CCNc1ccc2noc3c2c1C(=O)c1ccccc1-3	87	187	-11	3
Cc1ccccc1-c1noc(COC(=O)CNC(=O)c2ccc(Cl)c(Cl)c2)n1	103	98	4	2
Cc1ccccc1NC1=NCCCS1	104	108	-14	.
O=c1[nH]c2ccccc2nc1CCc1ccccc1	104	106	-4	-37
O=C(O)COCCN1CCN(C(c2ccccc2)c2ccc(Cl)cc2)CC1 (stereo not given)	107&101&99	99&103&102	-4&-14	-22&-3&0

Structural class: the entries above containing fluorine.
SMILES	PV pol inh	PV pol inh intensity	MbtI inh	MenB inh
O=C1OCCC1n1nnc(-c2ccc(F)cc2)n1 (stereo not given)	100	96	7	-15
O=C(CSc1nccn1-c1ccc(F)cc1)Nc1ccccc1	100	101	9	-15
COC(=O)c1c(F)c(F)c(F)c(F)c1C(=O)OC	100	102	-16	4
OC1(C(F)(F)F)CC(c2ccc3c(c2)Nc2ccccc2S3)=NN1 (stereo not given)	98	95	1	11
CCC1CSC(Nc2ccccc2C(F)(F)F)=N1 (stereo not given)	98	95	2	4
CCn1cc(C(=O)NN)c(=O)c2cc(F)c(NC3CCCCC3)cc21	100	106	10	8
O=C(Nc1ccc(F)c(Cl)c1)c1ccc(N2C(=O)CCC2=O)cc1	107	100	34	8
Nc1c(C(=O)N2CCCC2)nnn1-c1ccc(F)cc1	101	103	3	-48
Nc1cccc2c1C(=O)N(C(=O)/C=C/c1cccc(F)c1)C2=O	82*	99*	12	-36
CC(NC(=O)CCN1C(=O)NC2(CCCC2)C1=O)c1cc(F)c(Cl)cc1Cl (stereo not given)	102	109	-13	-3
Cn1ccsc1=NC(=O)c1ccccc1OC(F)F	105	113	0	-5
O=C(c1ccco1)N1CCN(C(=O)c2cc(F)c(F)c(F)c2F)CC1	102	105	-17	.
Cn1c(CN2CCOCC2)nc2cc(NS(=O)(=O)c3ccc(F)cc3)ccc21	104	107	-11	-5

Bioassay records from PubChem BioAssay.
